VACV Venus inh – inhibitors of vaccinia virus (Venus reporter); Vaccinia virus Venus reporter expression, fluorescence; Potency, µM (titrated, usually from 36.5 µM), for inactives: at the highest dose activity change, negative = inhibition, hits mostly inhibitors; 330,000 tested, 0.46% active; active means well fitted inhibition curve with a large enough effect; inconclusive means small, poorly fitted or top-dose-only effect; inactive means no such curve, though single readings can be large or run the other way; tested in A549 cells; note: nearly all actives have a fitted effect of over 30% in size; inactives centre near -10
Vaccinia mCherry – vaccinia inhibition (mCherry reporter); AID 720579; Potency, µM (doses to about 36.5 µM), inactives show at the top dose activity change, negative = inhibition, actives largely listed as inhibitors; Vaccinia virus mCherry reporter infection, fluorescence; about a quarter of the inactives have no number; 310,000 tested, 0.63% active; active = well fitted inhibition curve with a large enough effect; inconclusive = small, poorly fitted or top-dose-only effect; inactive = no such curve, though single readings can be large or run the other way; tested in A549 cells; note: nearly all actives have a fitted effect of over 35% in size; inactives centre near -10
* marks the source's active call; other numbers are inactive results; i = inactive; ? = inconclusive; nt = no result given; & = joins results of further samples; [ ] = dose if it differs, or a comment. % is set by controls: 0 for no effect and ±100 for the full control effect; potency is the fitted concentration of half-maximal effect.

SMILES | VACV Venus inh | Vaccinia mCherry
O=C(NCc1ccccc1)N1CCN(c2ccc(F)cc2)CC1 | -16.1% | -23.4%
CCNc1nc2c(c(=O)[nH]c(=O)n2C)n1CC(C)C | -0.2% | i
S=c1nc(C2COc3ccccc3O2)[nH][nH]1 (centres undefined) | -5.4% | -2.6%
O=C(CSc1ccc(-c2cccnc2)nn1)Nc1ccccc1F | -16.1% | -5.3%
Cc1cc(Cl)c2ccc3ccccc3c2n1 | 8.0% | 0.9%
COc1ccc(Cl)cc1NC(=O)C1CC(=O)N(C2CCCCC2)C1 (centres undefined) | -20.3% | -6.9%
Cc1cc(S(=O)(=O)N2CCN(CC(=O)N(C)Cc3ccccc3)CC2)ccc1Br | -29.1% | -17.7%
CCN(CCCNC(=O)CN1C(=O)COc2ccccc21)c1ccccc1 | -20.3% | -3.5%
Cc1ccc(NS(=O)(=O)c2ccc(C(=O)N3CCC3)cc2)cc1 | -8.3% | -9.1%
COc1ccc(N2CCN(C(=O)CSc3nc4ccccc4c(=O)[nH]3)CC2)cc1 | -1.0% | -17.9%

Among those listed so far, these contain four or more nitrogen atoms.
SMILES | VACV Venus inh | Vaccinia mCherry
CCNc1nc2c(c(=O)[nH]c(=O)n2C)n1CC(C)C | -0.2% | i
O=C(CSc1ccc(-c2cccnc2)nn1)Nc1ccccc1F | -16.1% | -5.3%
COc1ccc(N2CCN(C(=O)CSc3nc4ccccc4c(=O)[nH]3)CC2)cc1 | -1.0% | -17.9%

The list continues:
SMILES | VACV Venus inh | Vaccinia mCherry
C[C@H](CO)N1C[C@H](C)[C@@H](CN(C)S(=O)(=O)c2ccc(F)cc2)Oc2c(NC(=O)Nc3ccccc3)cccc2C1=O | -29.9% | i
CC(C)c1ccc(NC(=O)c2ccc(=O)n(Cc3ccccc3)c2)cc1 | -20.3% | -3.9%
CC(C)NC(=O)C1=CC(c2ccc3c(c2)OCO3)=NS(=O)(=O)N1C | -4.5% | 0.1%
CCC(OC(=O)c1nsc(Cl)c1Cl)C(=O)NCCc1ccccc1 (centres undefined) | 0.8% | i
Cc1ccc(/C(CSc2nccn2-c2ncc(C(F)(F)F)cc2Cl)=N\O)cc1 | -28.0% | nt
C=CCn1c(N2CCN(c3ccc(OC)cc3)CC2)nc2c1c(=O)n(C)c(=O)n2C | -2.1% | -4.3%
Cc1cccc(NC(=O)NC2CCCCCCC2)c1C | -3.6% | -5.3%
C[C@H](CO)N1C[C@H](C)[C@@H](CN(C)S(=O)(=O)c2cccs2)Oc2c(NS(=O)(=O)c3ccc(F)cc3)cccc2C1=O | -7.1% | -19.9%
CN(C)c1ccc(C=C2C(=O)OC(C)(C(C)(C)C)OC2=O)cc1 (centres undefined) | -10.2% | nt
Cc1ccc(NC(=S)N/N=C/c2c(Cl)cccc2Cl)c(C)c1 | ? | ?
CC(=O)Nc1ccc(-c2nn[nH]n2)cc1Cl | -6.4% | -12.8%
CNC(=O)c1[nH]cnc1C(=O)NCC(=O)OCc1ccccc1 | 0.6% | i
CC(C)OC(=O)CC12CN(C)CC(CC(=O)OC(C)C)(CN(C)C1)C2=O | -12.3% | nt
CCOc1ccc(CC(=O)NCCc2csc(-c3ccc(C)cc3)n2)cc1 | -21.9% | -18.0%
CO/N=C/c1cn(-c2ccc(Cl)cc2)nn1 | 1.9% | 1.8%
COc1cc(/C=N/N=C2/C(=O)Nc3ccccc32)ccc1O | -8.8% | -17.4%
Cc1ccccc1NC(=O)CN(C)S(=O)(=O)c1cccs1 | -9.1% | -8.8%
O=C(/C=C/c1ccco1)N/C(=C\c1ccco1)C(=O)NCCc1nc2ccccc2[nH]1 | 6.7% | -6.3%
COc1cc(C=O)c(Br)cc1OCC(=O)NCc1ccccc1 | -16.2% | i
Cc1ccccc1N1C(=O)c2ccccc2C1Nc1cccnc1 (centres undefined) | -8.4% | i

Entries of single compounds as entered above. Screens in order: VACV Venus inh	Vaccinia mCherry
`CCOc1ccc(CC(=O)NCCc2csc(-c3ccc(C)cc3)n2)cc1` is listed with -21.9%	-18.0%
`O=C(/C=C/c1ccco1)N/C(=C\c1ccco1)C(=O)NCCc1nc2ccccc2[nH]1` is listed with 6.7%	-6.3%
`CNC(=O)c1[nH]cnc1C(=O)NCC(=O)OCc1ccccc1` is listed with 0.6%	i
`CO/N=C/c1cn(-c2ccc(Cl)cc2)nn1` is listed with 1.9%	1.8%

(listing goes on)
SMILES | VACV Venus inh | Vaccinia mCherry
O=S(=O)(NCc1csc(-c2cccnc2)n1)c1ccc(F)cc1 | -15.2% | i
COc1ccc(/C(C#N)=C/c2c(-c3ccc(Cl)cc3)nc3c(C)cccn23)cc1 | -2.7% | nt
CNc1nc(Nc2ccc(C(=O)OC)cc2)c2sccc2n1 | 2.2% | 21.8%
CC(C)Cn1nc(NC(=O)C2CCCO2)c2cc3ccccc3nc21 (centres undefined) | ? | -19.8%
Cc1cc(/C=C2/NC(=O)NC2=O)c(C)n1-c1cccnc1 | -8.3% | -14.6%
COc1ccc(C(=O)N/N=C(\C)CC(=O)Nc2ccc3c(c2)OCO3)cc1 | -14.3% | i
Cc1ccsc1C(=O)N1CCCC(C)(C(=O)O)C1 (centres undefined) | 0.4% | 24.3%
CC(=O)Nc1ccc(NC(=O)COC(=O)c2c(C)nn(-c3ccccc3)c2C)cc1 | -18.0% | 0.6%
O=C(O)c1cccc(N2C(=O)c3ccc(Oc4ccc(Cl)cc4)cc3C2=O)c1 | -2.1% | 3.3%
COc1cc(OC)c(NC(=O)CCNS(=O)(=O)c2ccc3c(c2)oc(=O)n3C)cc1Cl | -3.2% | -7.8%
COc1cc(S(=O)(=O)Nc2c(C)nn(C)c2C)ccc1NC(C)=O | -3.6% | -14.5%
COc1cc(CN2CCN(CC3CC3)CC2CCO)cc(OC)c1 (centres undefined) | -2.6% | -13.8%
COc1ccc(CC(=O)Nc2nc(-c3ccncc3)cs2)cc1 | -9.4% | -17.6%
CN(C)c1ccc(NC(=O)Nc2nc(C(N)C3CCCCC3)cs2)cc1 (centres undefined) | -11.7% | i
CC(C)C(NC(=O)c1ccccn1)c1nnc2n1CCN(Cc1ccc3ccccc3c1)CC2 (centres undefined) | -14.5% | i
COc1ccc(C2C(=O)N(C3CCC(C)CC3)CC(=O)N2CCc2ccccc2)cc1OC (centres undefined) | -8.5% | -6.9%
Cc1nn(S(=O)(=O)N2CCOCC2)c(C)c1Br | -13.9% | -1.4%
CC1CCC(C(=O)NC(C(=O)NCCN2CCC(C)CC2)C(C)C)CC1 (centres undefined) | -18.2% | -18.6%
COc1cccc(NC(=O)CSc2nnc(-c3cccnc3)o2)c1 | -10.0% | -14.9%
CC(C)(C)NS(=O)(=O)c1ccc(NC(=O)C2CCCO2)cc1 (centres undefined) | -20.9% | i
CCCn1nnc(NC(=O)c2ccc(OC)cc2)n1 | -4.0% | -7.8%
CCc1ccccc1NC(=O)c1cc(S(=O)(=O)N2CCc3ccccc32)ccc1F | -17.1% | -6.2%
CCCCCCC(=O)NC(Nc1ccc(S(N)(=O)=O)cc1)C(Cl)(Cl)Cl (centres undefined) | ? | -17.4%[1.46 µM]
O=C1CCN(CCCc2ccccc2)CCN1[C@H](CO)Cc1ccccc1 | ? | -4.5%
CCN1C(=O)N[C@@H](c2cccc(F)c2)C(C(C)=O)=C1C | -17.6% | -11.7%
CCOC(=O)N1CCN(C(=O)CN(Cc2ccccc2)S(=O)(=O)c2ccc(OC)c(C)c2)CC1 | ? | nt
COc1cccc(CNC(=O)c2ccc(S(=O)(=O)N3CCCC3)cc2)c1 | -6.2% | -8.6%
COc1cc(-n2c(C)nc3ncn(-c4ccccc4)c3c2=O)cc(OC)c1OC | 1.2% | i
Cc1cc(C)n2nc(SCC#N)nc2n1 | -1.7% | -8.0%
CCN(CC(=O)Nc1c(F)cccc1F)C(=O)CN(C)S(=O)(=O)c1ccc(F)cc1 | -5.9% | -25.2%
CC[C@@H](O)C[C@H]1CCC[C@@]2(C[C@@H]3OC(=O)/C=C/[C@@](C)(O)[C@@H](O)[C@H](C)[C@@H](O)[C@H](OC4CCC(N(C)C)C(C)O4)[C@@H](O)[C@](C)(O)CCCCC/C=C/[C@@H]4CC(C)(C)O[C@@]4(O)C[C@H](O2)[C@H]3C)O1 (some centres undefined) | -25.9% | -7.1%
S=C(NCCCCN(Cc1ccc(Cl)cc1)c1ccc(Br)cn1)NCCCc1cnc[nH]1 | -20.7% | i
Cc1nn(CC(=O)c2ccccc2)c(=O)c2nn(-c3ccccc3F)c(C)c12 | -15.4% | -0.5%
CCCc1cc(=O)oc2cc(OC(C)C(=O)NCC3CCC(C(=O)O)CC3)c(Cl)cc12 (centres undefined) | 60.1%[activator] | 67.7%[activator]
Cc1cc(NC(=O)CCCN2C(=O)/C(=C\c3cccs3)SC2=S)no1 | 9.5% | -14.2%
Cc1nc2c3cc(F)ccc3n(Cc3ccccc3F)c2s1 | -27.8% | i
COc1cccc(CN2CCc3nc(Nc4ccc5c(c4)OCCO5)ncc3C2)c1 | -9.1% | -10.5%
COc1cccc(-c2nc3c(C#N)c[nH]n3c2NC2CCCCC2)c1 | -19.1% | -19.6%
O=C(NCc1ccco1)C(Cc1ccccc1)NS(=O)(=O)c1cccc2nsnc12 (centres undefined) | -11.7% | -9.2%
Cc1sc2nc(SCC(=O)Nc3ccc(S(=O)(=O)NCCCC(=O)O)cc3)[nH]c(=O)c2c1C | 8.0% | -1.5%
CC(=O)Nc1ccc(C=NNc2ccc(S(=O)(=O)Nc3ccccc3C(=O)O)cc2[N+](=O)[O-])cc1 | 0.0% | i
O=S(=O)(c1ccccc1)n1ccc2ccccc21 | -22.3% | nt
Cc1ccc(-n2c(C)cc(C(=O)COC(=O)c3ccc[nH]c3=O)c2C)cc1C | -26.5% | i
CCn1ncc(/C=N/NC(=O)c2cc(Cl)ccc2OC)c1C | -12.0% | i
Cc1cccc2sc(NNC(=O)c3ccc(S(=O)(=O)N4CCc5ccccc5C4)cc3)nc12 | ? | ?
COCCNC(=O)CS(=O)Cc1nc(-c2ccc(Cl)cc2)oc1C (centres undefined) | -20.2% | -5.9%
CCOC(=O)COc1ccc(S(=O)(=O)NCCC2=CCCCC2)cc1 | -2.0% | -13.4%
O=C1NN=C(c2ccc(Br)cc2)CC1c1ccc(Cl)cc1 (centres undefined) | -24.1% | i
CC1CCN(S(=O)(=O)c2cc(C(=O)Nc3ccc(Br)cc3F)n(C)c2)CC1 | -14.4% | -10.9%
O=C(NCC(O)c1nc2ccccc2[nH]1)c1cc([N+](=O)[O-])ccc1F (centres undefined) | -18.1% | i
Next part
SMILES | VACV Venus inh | Vaccinia mCherry
COc1ccc(COC(=O)C2CCN(S(=O)(=O)c3cccs3)CC2)cc1 | -5.9% | -14.2%
CCCN(c1ccc(C(C)C)cc1)S(=O)(=O)c1ccc2c(c1)oc(=O)n2CC(=O)OCC | -9.9% | -2.4%
O=C(COc1ccc2ccccc2c1Br)Nc1ccncc1 | ? | -18.1%
COc1ccc(C)cc1Nc1n[n+](-c2ccccc2)c(-c2ccc(C(=O)O)cc2)s1 | -11.8% | -4.7%
O=C(COC(=O)CNC(=O)c1sc2ccccc2c1Cl)Nc1cc(Cl)cc(Cl)c1 | 9.6% | i
C[C@@H]1CCC[C@]2(O[C@H](CCO)C[C@H](O)[C@H]2O)O1 | -12.0% | -14.3%
C[C@H]1CN([C@@H](C)CO)C(=O)Cc2cc(NC(=O)C3CC3)ccc2O[C@H]1CN(C)Cc1ccc(C(=O)O)cc1 | -1.1% | i
COc1ccc(CCNC(=O)CCn2c(=O)c3ccccc3n(Cc3ccccc3)c2=O)cc1OC | -17.9% | -20.2%
CCCCCc1ccc(-c2cn(Cc3ccc4ccccc4c3)nn2)cc1 | -1.0%&-11.4% | -0.9%
COC(=O)C(C)N1C(=O)S/C(=C/c2cc(C)n(-c3ccccn3)c2C)C1=O (centres undefined) | -14.1% | ?
CCOc1ccc(N=CNc2ccc(OCC)cc2)cc1 | -0.6% | i
O=C(NC(=S)Nc1ccc2[nH]c(=O)[nH]c2c1)c1ccccc1F | -16.8% | i
CC(C)N1C(=O)CCC1C(=O)NCc1cccs1 (centres undefined) | -2.1% | 1.2%
COC(=O)c1ccc(C)c(NC(=O)CCc2cc(OC)c(OC)c(OC)c2)c1 | -4.9% | -10.2%
COc1ccc(CNC(=O)C(C)c2ccc([N+](=O)[O-])cc2)cc1 (centres undefined) | -14.4% | -4.3%
CCN(CC)c1ccc(C(=O)NNC(=O)CNC(=O)c2ccco2)cc1 | -7.6% | i
O=C(O)c1cnn2c1NC(c1cccs1)CC2C(F)(F)F (centres undefined) | -6.5% | nt
Cn1ncc(C#N)c1NC(=O)c1cc(-c2ccccc2Cl)on1 | -1.9% | -11.4%
CCc1ccc(C(=O)COC(=O)CNC(=O)COc2ccccc2)cc1 | 5.2%&-17.3% | 27.6%&-7.3%
O=c1[nH]cnc2sc(-c3ccccc3)cc12 | -11.4% | -20.7%
CCCNC(=O)COC(=O)/C=C/c1cccc(F)c1 | -2.1% | i
CC(=O)c1ccccc1NC(=O)COC(=O)/C=C/c1cccs1 | -4.3% | -0.6%
O=C(Nc1ccc(F)cc1)C(c1cc2ccccc2o1)N1CCN(c2ccncc2)CC1 (centres undefined) | -17.8% | 4.2%
Cc1cccc(S(=O)(=O)NC(=O)C2(C)CCN2C(=O)C2(c3ccc(Cl)cc3)CC2)c1 (centres undefined) | 0.0% | 4.2%
COc1cccc(C(=O)CN(C(=O)c2ccc(Cl)cc2Cl)N2C(=O)c3ccccc3C2=O)c1 | -12.8% | i
Cc1nc2ccccc2nc(C)c1=NOCc1ccc(Cl)cc1Cl | -7.7% | -30.0%
CC(C)CCN(C(=O)c1csnn1)C(C(=O)NC1CCCC1)c1ccccc1 (centres undefined) | -14.7% | i

Compound activity deposited in PubChem by National Center for Advancing Translational Sciences (NCATS).
